PABP FP inh: blocks human PABP binding to poly(A) RNA. P11940. inhibition, % at 35 µM. 290,000 compounds, 1% hits. fluorescence polarization;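 active = 50% or more with normal probe brightness, or confirmed in later tests; about a fifth of its hits are not listed in these tables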;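 note: calls also rest on retests at 20 µM and on dose response follow-up; controls were probe without protein and protein plus probe with vehicle; some compounds called inactive have numbers as strong as hits; many hits fall short of the cut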
eIF4H inh: inhibitors of RNA binding by human eIF4H; eIF4H fluorescence polarization binding assay; 290,000 compounds, 0.94% hits; inhibition, % at 35 µM; Q15056; AID 2012;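 active = 50% or more with normal probe brightness, or confirmed in later tests; about a fifth of its hits are not listed in these tables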;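 note: calls also rest on retests at 20 µM and on dose response follow-up; 0% = protein and probe with vehicle and 100% = probe without protein; strong numbers were not always called active; many hits fall short of the cut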
MT1-MMP act inh: blocks activation of human MT1-MMP; P50281; AID 651647; HT1080 RFP-PRO-GFP cells, GFP/RFP ratio fluorescence, overnight; percent of plate control window, DMSO zero; GFP/RFP ratio change, % at 20 µM; 360,000 compounds, 0.061% hits;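 active = GFP/RFP ratio change of at least 30% with cell ATP level not reduced by more than half and red fluorescence within 50% of control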; note: strong numbers were not always called active
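Assay system: HT1080 cells carrying an RFP-PRO-GFP reporter | Dosing: Single dose of 20 µM compound, 1% DMSO final | Incubation: Cells overnight before dosing, compound overnight, 37 °C, 5% CO2 | Evaluation: GFP/RFP fluorescence ratio | Control set: DMSO and RFP-L50D-GFP cell wells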
Yeast UUG start: yeast start codon fidelity modulation. 350,000 compounds, 0.13% hits. activity score, % at 18.7 µM. AID 602363. S. cerevisiae UUG-firefly luciferase reporter, luminescence/redox ratio;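 active = replicate mean at a twofold rise or more, about +100% in these data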;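 note: firefly luciferase made from a UUG start codon reports start codon fidelity; reporter light over untreated wells divided by growth signal over untreated wells; some hits fall short of that in this replicate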
HIV Env fusion: inhibitors of HIV Env-mediated cell fusion. HeLa-JRFL Env/CEM21 cell fusion, luciferase. inhibition, % at 12.3 µM. 360,000 compounds, 1.1% hits. AID 651610;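 active = mean replicate inhibition score of at least 50 and every replicate individually at or above 50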;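 note: 0% = plate neutral controls and 100% = maraviroc near 300 nM; one replicate is shown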
Rce1 inh: blocks yeast Ras-converting enzyme; yeast membranes, quenched prenylated peptide cleavage fluorescence; calls only; 290,000 compounds, 0.27% hits;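 active = fall in fluorescence gain of 50% or more versus controls, with final raw signal at or below 3038400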;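 note: plate controls were neutral control wells for no effect and wells lacking membranes for full effect; tested at 10 µM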
Target sequence (Q03530 whole entry, looked up): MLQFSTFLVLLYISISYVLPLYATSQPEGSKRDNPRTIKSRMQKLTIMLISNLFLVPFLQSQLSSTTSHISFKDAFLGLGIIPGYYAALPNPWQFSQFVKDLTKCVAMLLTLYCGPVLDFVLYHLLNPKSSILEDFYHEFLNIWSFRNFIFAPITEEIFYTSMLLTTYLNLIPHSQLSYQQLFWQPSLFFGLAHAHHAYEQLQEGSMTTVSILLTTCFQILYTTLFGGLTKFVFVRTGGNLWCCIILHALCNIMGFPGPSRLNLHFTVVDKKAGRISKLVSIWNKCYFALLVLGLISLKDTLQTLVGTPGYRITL
CSC inhib: blocks cancer stem cells; cancer stem cell-like cells viability, luminescence; inhibition, % at 7.5 µM; 300,000 compounds, 1.1% hits; AID 2717;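 active = mean at 75% or more and at least half the replicates too; tested in HMLE shEcad cells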;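 note: 0% = median of negative and 100% = median of positive control wells; the first replicate is given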
MT1-MMP act inh RFP: second read-out of MT1-MMP act inh, no call of its own (marks repeat the call); RFP signal change, %; measured here: RFP expression control read;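 0 = vehicle wells; hits needed this value within 50% of zero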
* marks the source's active call; other numbers are inactive results; i = inactive; nt = not tested or not shown; + = active, no number.

SMILES | PABP FP inh | eIF4H inh | MT1-MMP act inh | MT1-MMP act inh RFP | Yeast UUG start | HIV Env fusion | Rce1 inh | CSC inhib
Cc1ccc(-c2csc(N/N=C/c3ccco3)n2)c(C)c1 | 5 | 48 | -12 | -14 | -7 | -5 | i | 11
CCCNC(=O)c1ccc(S(=O)(=O)c2ccc(OC)cc2)c([N+](=O)[O-])c1 | 4 | -13 | -4 | -16 | -10 | 15 | i | 6
C(=N\n1cnnc1)/c1ccc(-c2ccccc2)cc1 | -1 | 0 | 7 | -4 | -24 | nt | i | -15
Nc1nonc1C(=O)NCCNC(=O)c1ccccc1F | 4 | 11 | 2 | 3 | -17 | nt | i | -12
NC(=O)CC(NC(=O)c1ccccc1)c1ccc(NC2CCN(Cc3ccccc3)CC2)c([N+](=O)[O-])c1 (stereo not given) | -6 | 5 | 2 | 5 | -6 | -9 | i | -2
O=C1c2cccc(OCC(=O)N3CCCc4ccccc43)c2CCN1Cc1ccc(F)cc1 | 4 | -2 | -2 | -10 | nt | 12 | i | 16
N/C(=N\OC(=O)Cc1cccs1)c1ccc([N+](=O)[O-])cc1 | -4 | 1 | 9 | 9 | -21 | -211 | i | -9
CCC1C(=O)NCCN1C(=O)c1ccc2nc(Cc3ccc(OC)cc3)oc2c1 (stereo not given) | 4 | -1 | 4 | -5 | -1 | -7 | i | nt
CN1CCN(S(=O)(=O)c2ccc(NN)nc2)CC1 | nt | nt | 0 | 4 | -8 | -2 | nt | -17
COc1ccc2cc3cc(C(=O)N4CCCCCC4)oc3nc2c1 | -6 | -2 | -1 | 1 | -33 | nt | i | 27
CC(C)Cn1c(-c2cccnc2)nc2c1c(=O)[nH]c(=O)n2CC(C)C | -8 | -6 | -3 | -2 | -20 | -9 | i | -14
Cc1nc2cc(C(=O)O)ccc2s1 | 8 | -15 | -1 | 2 | -28 | -124 | i | -4
COc1cc(NC(=O)c2cc(OC)c(OC)c(OC)c2)c2ncccc2c1 | nt | nt | 2 | 0 | -3 | 0 | nt | nt
COc1cccc2sc(NNC(=O)C3=COCCO3)nc12 | 10 | -4 | -10 | 8 | -23 | 3 | i | -4
Cc1cccc(NC(=O)c2cc(S(=O)(=O)N3CCCCC3)c[nH]2)c1C | -6 | -6 | 0 | -4 | 2 | -8 | + | -7
Cc1ccc(CSC2=NCCN2C(=O)C2CC2)cc1 | 11 | 5 | -2 | 5 | -5 | nt | i | -13
CC(C)(C)CC(=O)Nc1ccccc1N1CCN(c2ccc(F)cc2)CC1 | -5 | 4 | 1 | -7 | 5 | 24 | i | 0
NC(=O)c1ccccc1-c1nc(-c2ccccc2)no1 | -9 | -6 | -1 | -1 | -9 | -51 | i | nt
Cc1ccccc1NC(=O)CC(C)S(=O)(=O)c1ccc2c(c1)NC(=O)CO2 (stereo not given) | 11 | -5 | -3 | 2 | -3 | -2 | i | 5
CCCc1ccc(OCc2ccccc2)c2c(=O)cc(C(=O)OCC)oc12 | 2 | 1 | -2 | -1 | -8 | 3 | i | -11
CCOC(=O)c1c(NC(=O)CCCC(=O)O)sc2c1CCC2 | 8 | -4 | 3 | 5 | nt | 8 | i | 9
Cc1coc2c(C)c3oc(=O)c(CC(=O)N[C@@H](CC(C)C)C(=O)O)c(C)c3cc12 | 19 | 0 | -3 | 1 | -5 | -20 | i | -4
O=C(CSc1nccn1Cc1ccc(F)cc1)NC1CCCC1 | -18 | -2 | 2 | 2 | -22 | -13 | i | 2
O=C(c1ccc(Cl)cc1)C1CCN(C(=O)c2ccc(F)cc2)CC1 | 7 | 6 | 1 | -11 | -6 | 3 | i | -10
O=C(/C=C/[C@H]1O[C@@H](n2ccc(=O)[nH]c2=O)[C@H](O)[C@@H]1O)NCc1cccnc1 | nt | nt | 2 | 5 | -17 | -15 | nt | nt
COc1ccccc1CCNC(=O)C(=O)NCC1OCCN1S(=O)(=O)c1ccc([N+](=O)[O-])cc1 (stereo not given) | nt | nt | 4 | -7 | -3 | 6 | i | -1
COc1ccc2c(c1OC)C(=O)OC2N1C(=O)CC[C@H]1C(=O)Nc1ccc2c(c1)OCO2 (stereo not given in full) | 6 | 23 | -6 | -1 | -12 | nt | i | -2
CC(NS(=O)(=O)c1ccc2c(c1)c(=O)n(C)c(=O)n2C)C(=O)NC1CCCCC1 (stereo not given) | 1 | 5 | -4 | 0 | -4 | 1 | i | 1
COCCn1c(COc2cccc(OC)c2)nnc1SCC(=O)NC1CCCCC1 | -4 | 1 | -4 | 1 | -4 | -6 | i | nt
Clc1ccc(OCCN2CCCCC2)cc1Cl | -9 | 3 | 0 | 1 | -10 | nt | i | 19
CC(=O)Nc1cccc(OCCCNC(=O)C2CCC2)c1 | -11 | -11 | 2 | 1 | -14 | 6 | nt | -5
COc1ccc(/C=C/C(=O)OCC(=O)NCc2ccco2)c(OC)c1 | 7 | -2 | 5 | 5 | nt | 3 | i | 8
c1ccc(C(c2ccccc2)c2ccn[nH]2)cc1 | -12 | -10 | -4 | -1 | nt | -5 | i | 3
COc1cc(/C=C/C(=O)OC[C@H]2O[C@H](OC3(CO)OC(CO)C(O)C3O)[C@H](O)[C@@H](O)[C@@H]2O)ccc1O (stereo not given in full) | nt | nt | -2 | 1 | 5 | -21 | nt | nt
CCCCN(Cc1cc2cc(OC)ccc2[nH]c1=O)S(=O)(=O)c1ccc(C)cc1 | -6 | -7 | -34 | -41 | -16 | 21 | i | nt
CCOC(=O)C1CCCN(S(=O)(=O)CCNC(=O)c2ccccc2)C1 (stereo not given) | nt | nt | 2 | 0 | nt | -6 | i | -9
O=C(CSc1nc(=O)n(CCCN2CCOCC2)c2c1CCCC2)Nc1ccc(Cl)cc1 | nt | nt | -2 | 0 | -5 | 0 | i | -17
Nc1nnc(/C=C/c2ccccc2)s1 | 5 | 4 | 0 | -1 | nt | -11 | i | -12
c1ccc(-c2csc(N3CCOCC3)n2)cc1 | -5 | -9 | -2 | 3 | -11 | -246 | i | -4
O=C1CN(C(=O)COC(=O)C2CC(=O)N(Cc3ccco3)C2)c2ccccc2N1 (stereo not given) | 13 | -1 | -1 | 2 | 4 | nt | i | 10
O=C(CCC(F)(F)F)N1CCCC(CO)(CCc2ccccc2)C1 (stereo not given) | 6 | -5 | -1 | -1 | -3 | 6 | i | -2
O=C(Cc1csc(NC(=O)Nc2ccc(Cl)cc2)n1)NCc1ccccn1 | nt | nt | 1 | -6 | -20 | -12 | i | nt
O=C(NCc1ccc(Cl)cc1)c1cc2c(s1)CS(=O)(=O)C2 | -2 | -1 | 1 | -2 | -2 | -36 | i | 5
O=S(=O)(c1ccc(-c2csc(Nc3ccc(Br)cc3)n2)cc1)N1CCCC1 | -13 | -4 | -1 | -8 | nt | 35 | i | 12
CCOc1ccc(C(C(=O)NC(C)(C)C)N(CCOC)C(=O)CCC(=O)Nc2ccccn2)cc1 (stereo not given) | 0 | 12 | 0 | -1 | 5 | 3 | nt | -1
COc1ccccc1N1CCN(C(=O)C(CC(C)C)NC(=O)C2CCCCC2)CC1 (stereo not given) | 13 | 5 | -5 | -6 | 5 | 13 | i | -11
O=C(c1cc(COc2ccc(F)cc2Cl)on1)N1CCC(c2ccncc2)CC1 | -5 | -6 | -7 | -29 | nt | 24 | i | 44
CSc1ccc(S(=O)(=O)N2CCC(C(=O)NCc3cccnc3)CC2)cc1 | 13 | -5 | 2 | -1 | -23 | 2 | i | -14
COC(=O)Cc1ccc(NC(=S)N2CCN(c3ccccn3)CC2)cc1 | -5 | -1 | 2 | -1 | -15 | 11 | i | -3
Cc1ccccc1OC1(C)CCN(Cc2ccc3ccccc3c2)C1 (stereo not given) | nt | nt | 2 | 4 | -17 | 22 | nt | nt
Cc1cc(C)cc(N(C(=O)CNC(=O)c2ccco2)C(C(=O)NC2CCCC2)c2ccncc2)c1 (stereo not given) | 6 | -18 | 1 | 3 | 4 | -12 | i | -2
O=C(COc1ccc(Cl)cc1)Nc1ccc2c(c1)OCO2 | 10 | 10 | 0 | 3 | nt | -8 | i | -6
CCOc1ccc2ncc(S(=O)(=O)c3ccc(C)cc3)c(N3CCC4(CC3)OCCO4)c2c1 | 20 | -5 | -28 | -24 | -7 | 21 | i | 20
COc1ccc(OC)c(S(=O)(=O)N2CCC(C(=O)NC3CCCC3)CC2)c1 | -5 | 3 | 0 | 0 | nt | -9 | i | -9
C(=N\N1CCOCC1)/c1cccs1 | 0 | -7 | 0 | 0 | nt | 27 | i | -4
Cc1cc2oc(=O)cc(CSc3nnc(C)n3N)c2cc1C(C)C | -4 | -11 | -5 | 1 | -10 | nt | i | -7
COc1ccc(OC)c2sc(NNC(=O)COc3ccccc3)nc12 | -4 | 2 | 5 | 1 | -19 | -64 | i | nt
CCOC(=O)Cc1csc(NC(=O)c2cccnc2)n1 | -6 | -4 | 1 | 1 | -16 | -41 | i | -16
Cc1ccc(CC2CC(=O)N(c3cc(C)ccc3C)C2=O)cc1 (stereo not given) | 13 | -4 | 2 | 0 | -1 | -33 | i | -9
O=C(Nc1ccc(F)c(F)c1)c1ccc(F)c(S(=O)(=O)N2CCOCC2)c1 | -7 | 2 | nt | nt | nt | nt | i | -1
Next part
SMILES | PABP FP inh | eIF4H inh | MT1-MMP act inh | MT1-MMP act inh RFP | Yeast UUG start | HIV Env fusion | Rce1 inh | CSC inhib
CCN(C(=O)c1ccc(NC(=O)Cc2ccccc2)cc1)c1ccccc1 | -1 | -5 | 1 | -3 | 1 | 0 | i | -18
O=S(=O)(c1ccc2ccccc2c1)N1CCNCC1 | 4 | -13 | 2 | -2 | -3 | nt | i | 21
CS(=O)(=O)c1cnc(-c2ccccc2)nc1Sc1ccc(F)cc1 | -6 | -12 | 0 | -2 | -8 | -36 | i | nt
O=C(CSc1nncs1)NC(=O)NC1CCCC1 | 8 | -6 | 2 | 0 | nt | -1 | i | 5
O=C(Nc1ccccc1)OCc1cn(-c2ccc(Cl)cc2)nn1 | -2 | 0 | 2 | 3 | -14 | 7 | i | -7
O=C(c1ccccc1)N1CCN(c2ccc([N+](=O)[O-])c(NCc3ccco3)c2)CC1 | -5 | -4 | 2 | -14 | -13 | nt | i | 38
Cc1nc(C(=O)N2CCCC(C(=O)c3cccc(OC(C)C)c3)C2)cs1 (stereo not given) | -16 | 1 | 3 | -3 | -16 | 26 | i | -16
CC1(c2cccc(Br)c2)NC(=O)N(CC(=O)NCC2CCCO2)C1=O (stereo not given) | nt | nt | 1 | 5 | -10 | 1 | nt | -15
O=C(Nc1ccc2c(c1)C(N1CCOCC1)c1ccccc1-2)C(F)(F)F (stereo not given) | nt | nt | -3 | -2 | -14 | -16 | nt | nt
O=C(CN1C(=O)CSc2ccc(S(=O)(=O)N3CCOCC3)cc21)NCCCN1CCOCC1 | 30 | -4 | 1 | 3 | 11 | 13 | i | -8
O=C(Nc1cccnc1)c1sc(Nc2ccccc2)nc1-c1ccccc1 | -6 | -4 | -5 | -12 | nt | -10 | i | 7
Cc1ccc(C)c(N2CCN(S(=O)(=O)c3cccc4cccnc34)CC2)c1 | 0 | -1 | -4 | 1 | nt | 2 | i | 23

Fetched one by one from the entries so far, 5 records:
SMILES | PABP FP inh | eIF4H inh | MT1-MMP act inh | MT1-MMP act inh RFP | Yeast UUG start | HIV Env fusion | Rce1 inh | CSC inhib
C(=N\N1CCOCC1)/c1cccs1 | 0 | -7 | 0 | 0 | nt | 27 | i | -4
Cc1cc(C)cc(N(C(=O)CNC(=O)c2ccco2)C(C(=O)NC2CCCC2)c2ccncc2)c1 (stereo not given) | 6 | -18 | 1 | 3 | 4 | -12 | i | -2
CC(=O)Nc1cccc(OCCCNC(=O)C2CCC2)c1 | -11 | -11 | 2 | 1 | -14 | 6 | nt | -5
COc1ccc2c(c1OC)C(=O)OC2N1C(=O)CC[C@H]1C(=O)Nc1ccc2c(c1)OCO2 (stereo not given in full) | 6 | 23 | -6 | -1 | -12 | nt | i | -2
CCOc1ccc2ncc(S(=O)(=O)c3ccc(C)cc3)c(N3CCC4(CC3)OCCO4)c2c1 | 20 | -5 | -28 | -24 | -7 | 21 | i | 20
